Screens from PubChem BioAssay.
Sa ugtP lethal: compounds lethal to S. aureus RN4220 ugtP deletion mutant | hit rate 0.54% among 330,000 | OD600 growth, 16 h; some inactives read as strong as hits | growth inhibition, % (test concentration not listed);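 active = z-score under -3 and OD600 up to 0.15 on both plates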;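 also: plate controls were untreated wells for no effect and antibiotic for full effect; wells of about 80 µL received 100 nL stock; the first replicate is given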
RN4220 kill: kills Staphylococcus aureus RN4220. S. aureus RN4220 growth, OD600, 16 h. inhibition, % (test concentration not listed). hit rate 0.33% among 330,000;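 active = z-score of -3 or lower and OD600 up to 0.18 on both plates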;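 also: plate controls were untreated cells for no effect and reference antibiotic for full effect; stock transfer was 100 nL into about 80 µL; one replicate is shown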
PrP UTR inh: inhibition of PrP 5' UTR reporter expression; cell-based PrP 5' UTR mRNA reporter, plate reader; inhibition, % (test concentration not listed); hit rate 0.35% among 340,000; AID 488862;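 active = every replicate at 50% or more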;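 also: 0 = median of the neutral control wells; tested in H4 reporter cells; numbers are from one replicate; inactives centre near -14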
BJeLR viability: BJeLR cell viability loss. BJeLR (HRASV12) viability, CellTiter-Glo ATP luminescence, 48 h; reference of the scale not given here. AID 1554. hit rate 0.17% among 300,000. inhibition, % (test concentration not listed);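 active = replicate mean above 50%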;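 also: 50 nL library stock added to about 25 µL; numbers are from one replicate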
Mtb hypoxia inh: inhibitors of hypoxia-regulated fluorescent reporter in Mycobacterium tuberculosis; AID 1159583; M. tuberculosis hypoxia-regulated fluorescent reporter, fluorescence; fluorescence inhibition, % (test concentration not listed); hit rate 0.1% among 300,000;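 active = 35 to 45% if threefold the growth effect, above 45% if 1.5-fold the growth effect; inactive = the rest, general growth blockers included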;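 also: wells of about 50 µL received 100 nL stock; 0% = vehicle wells and 100% = reference inhibitor wells; whole bacteria with a GFP reporter of the hypoxia response; strong numbers were not always called active; many hits fall short of the cut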
Bead autofluor: flagged as autofluorescent in microsphere protease counterscreen | compound autofluorescence counterscreen, microsphere flow cytometry; active compounds read high | AID 624483 | fluorescence intensity (test concentration not listed) | hit rate 3.1% among 360,000;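 active = at least 3 SD above the mean of all compounds, about 16000 in these data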;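 also: 100 nL of 1 mM stock went into each well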
Mtb hypoxia inh growth: further read-out of Mtb hypoxia inh, marked with its call; growth inhibition, %; measured here: M. tuberculosis growth (absorbance);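 0% = vehicle and 100% = reference antibiotic; read after six days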
* marks the source's active call; other numbers are inactive results; · = no result given. An unsorted share of the library; 4% or so of the library scored in one or more.

structure | Mtb hypoxia inh | RN4220 kill | Mtb hypoxia inh growth | BJeLR viability | PrP UTR inh | Bead autofluor | Sa ugtP lethal
CSCCC(NC(=O)COc1ccccc1)C(=O)OCC(=O)c1cc2ccccc2o1 (stereo not given) | 11 | 1.0 | 2 | -13 | -26 | 4554 | 4
COc1ccc(OCC(O)CNC(=O)Nc2ccccc2)cc1 (stereo not given) | -2 | 3.0 | -4 | 0 | -22 | · | 4
Cn1c(C(=O)NCCCN2CCN(c3ccccc3F)CC2)cc2c(=O)n(C)c3ccccc3c21 | · | 2.8 | · | 1 | 11 | 6290 | 14
CCOC(=O)C1CCCN(C(=O)CCNS(=O)(=O)c2cc(Br)cnc2N)C1 (stereo not given) | 13 | 5.0 | 6 | -1 | -1 | 5793 | -1
CCCSc1sc(C(=O)OC)c(-c2cccs2)c1C#N | 8 | 3.2 | 10 | -2 | -6 | · | 26
CCCC(C)NC(=O)COc1ccc(Sc2ccc(OCC(=O)NC(C)CCC)cc2)cc1 (stereo not given) | -4 | 0.1 | -1 | -2 | -19 | 2122 | 15
COC(=O)C1=C(C(=O)OC)[N+]2=C3N(C(=O)NC2(C)C)[C@H](CO)C[C@@]32c3ccccc3N(Cc3ccccc3)[C@@H]12 | · | · | · | -5 | -11 | 3825 | ·
Cc1cccc(NC(=O)N(C)Cc2cccs2)c1 | 12 | 0.6 | 3 | -1 | -14 | 3522 | -1
CCCC(=O)NCC(c1cccs1)S(=O)(=O)c1ccc(Cl)cc1 (stereo not given) | 0 | 0.9 | 8 | 2 | 3 | 6100 | -1
Cc1ccc(N2CN=C3SCC(=O)N3C2)cc1C | 3 | 2.9 | -4 | -8 | -14 | 2591 | 2
O=C(CN1CCN(c2ccccn2)CC1)Nc1ccc([N+](=O)[O-])cc1C(=O)Nc1ccccc1F | 4 | 0.1 | 1 | 1 | 8 | 4739 | -13
CCOC(=O)CC1COCCN1Cc1cn[nH]c1-c1ccc2c(c1)OCO2 (stereo not given) | -1 | 9.4 | -1 | -4 | -4 | 4593 | 3
Cc1ccc(OCC(=O)N/N=C/c2ccc([N+](=O)[O-])o2)cc1 | · | · | · | -4 | -6 | 4189 | ·
S=c1cn[nH]c2ccccc12 | 2 | 2.5 | 10 | · | 8 | 4112 | -3
CCOC(=O)CNC(=O)CSc1nnc(-c2ccco2)n1N | 10 | 6.0 | 7 | 0 | -20 | 8626 | -5
CCc1ccc(OCC(=O)N(Cc2ccccc2)C2CCS(=O)(=O)C2)cc1 (stereo not given) | -2 | 1.8 | 1 | -8 | -18 | 4417 | 9
Cc1c(C)c2ccc(OC(C)C(=O)N3CC[C@@]4(O)CCCC[C@H]4C3)c(C)c2oc1=O (stereo not given in full) | · | 4.1 | · | -4 | -14 | 5154 | 6
O=C(c1cc(Cl)ccc1[N+](=O)[O-])N1CCc2ccccc2C1 | -3 | 6.5 | 1 | -15 | -3 | 2057 | 8
CCOC(=O)c1ccc(S(=O)(=O)N2CCN(CCC#N)CC2)cc1 | · | 0.7 | · | 0 | -5 | 5417 | 10
CN(C)C(=O)CSc1nnc(NC(=O)CCc2ccccc2)s1 | 0 | -0.4 | 12 | -3 | -26 | 3358 | -3

Single entries from above:
Reading for `CN(C)C(=O)CSc1nnc(NC(=O)CCc2ccccc2)s1` under Bead autofluor: 3358
Reading for `Cc1ccc(N2CN=C3SCC(=O)N3C2)cc1C` under Bead autofluor: 2591
Reading for `CCOC(=O)CC1COCCN1Cc1cn[nH]c1-c1ccc2c(c1)OCO2` (stereo not given) under Bead autofluor: 4593

5 neighbouring compounds from above:
structure | Mtb hypoxia inh | RN4220 kill | Mtb hypoxia inh growth | BJeLR viability | PrP UTR inh | Bead autofluor | Sa ugtP lethal
CCOC(=O)CC1COCCN1Cc1cn[nH]c1-c1ccc2c(c1)OCO2 (stereo not given) | -1 | 9.4 | -1 | -4 | -4 | 4593 | 3
Cc1ccc(OCC(=O)N/N=C/c2ccc([N+](=O)[O-])o2)cc1 | · | · | · | -4 | -6 | 4189 | ·
S=c1cn[nH]c2ccccc12 | 2 | 2.5 | 10 | · | 8 | 4112 | -3
CCOC(=O)CNC(=O)CSc1nnc(-c2ccco2)n1N | 10 | 6.0 | 7 | 0 | -20 | 8626 | -5
CCc1ccc(OCC(=O)N(Cc2ccccc2)C2CCS(=O)(=O)C2)cc1 (stereo not given) | -2 | 1.8 | 1 | -8 | -18 | 4417 | 9

Other records
structure | Mtb hypoxia inh | RN4220 kill | Mtb hypoxia inh growth | BJeLR viability | PrP UTR inh | Bead autofluor | Sa ugtP lethal
O=C(CNC(=O)c1ccccc1F)NNC(=O)c1ccccc1O | 4 | 3.2 | -3 | 0 | -7 | 4617 | 0
CC(C)(C)NC(=O)C(c1cccnc1)N(C(=O)c1csnn1)c1ccccc1 (stereo not given) | 13 | 4.0 | 13 | -5 | -22 | 4335 | 7
COC(=O)c1ccc(NC(=O)CSc2nnc(CNc3ccc(F)cc3)n2C)cc1 | 9 | 0.2 | 8 | 0 | -3 | 8422 | -15
COc1nc(Oc2ccc(C(=O)O)cc2)nc(Oc2ccc(C(=O)O)cc2)n1 | 6 | 0.5 | 7 | 0 | -19 | 11771 | 8
O=C(NN=Cc1ccc(Br)o1)c1ccc2c(c1)OCCO2 | 10 | 2.8 | 9 | · | · | · | -3
O=C(OCC(=O)c1ccc[nH]1)c1ccc(Cl)c(Cl)c1 | 4 | 3.5 | -4 | · | -31 | 3262 | -1
CCOC(=O)c1sc(NC(=S)NC(=O)c2ccco2)nc1C | -3 | 0.6 | 10 | -6 | -9 | 7324 | -11
O=C(CSc1nnc(-c2ccco2)n1Cc1ccccc1)c1ccccc1 | · | 1.9 | · | 1 | -42 | 2864 | -14
COCCCNCCOCCSc1ccc(Cl)cc1 | 12 | 3.5 | 9 | 11 | 0 | 7474 | 3
COc1ccc(CNC(=O)/C(C#N)=C/c2cccc(OC)c2OC)cc1 | 8 | 0.6 | 6 | -3 | -4 | 3425 | -4
O=C(COC(=O)/C=C/c1ccccc1Cl)NC1CCCC1 | 11 | 2.8 | -5 | · | -21 | 3873 | 2
O=C1N/C(=N\N=Cc2cccs2)SC1Cc1ccc(Cl)cc1Cl (stereo not given) | -5 | -7.0 | 7 | · | · | · | 2
Cn1c(=O)c2c(ncn2CC(=O)NN=Cc2ccc(Br)s2)n(C)c1=O | 4 | 4.5 | 5 | · | · | · | 5
O=[N+]([O-])c1cccc2c([N+](=O)[O-])cccc12 | 11 | 8.9 | 9 | · | -18 | 5463 | 2
O=C(CNS(=O)(=O)c1ccc2c(c1)OCCCO2)N1CCN(c2ccc(F)cc2)CC1 | 22 | 4.3 | 34 | · | 2 | 6279 | 9
COc1ccc(S(=O)(=O)N(C)CC(=O)Nc2ccccc2OC)cc1C | · | -2.3 | · | -4 | -5 | 4947 | 5
COc1ccc(Nc2oc(-c3ccco3)nc2S(=O)(=O)c2ccc(F)cc2)cc1 | -10 | 0.8 | -9 | -3 | -5 | 2489 | 12
COc1ccccc1NC(=O)CSc1nnc(-c2ccoc2C)n1C | 17 | 4.0 | 6 | -1 | -11 | 5546 | -3
COc1ccc(-n2c(Cc3cccn3C)nnc2SCC(=O)Nc2ccc(Cl)cc2)cc1 | · | 2.6 | · | 6 | -15 | 6338 | 5
c1ccc(C2NCCc3[nH]cnc32)cc1 (stereo not given) | -2 | 1.6 | 4 | 3 | -17 | 3615 | -1
CCN(CC)C(=O)C1CCN(S(=O)(=O)c2ccc3oc4ccccc4c3c2)CC1 | 21 | 0.7 | 12 | 11 | -23 | 10922 | 0
O=C(Nc1nc(-c2ccncc2)cs1)c1ccc(F)cc1 | 7 | 3.9 | 5 | -7 | -16 | 3069 | 15
CCNC(=O)NC(=O)CSc1ccc2ccccc2c1 | 3 | 2.4 | 12 | 6 | -28 | 3617 | -2
COc1ccc(Br)cc1/C=C/c1ccc2cccc(O)c2n1 | -9 | 17 | -9 | 6 | 11 | 2660 | 11
COc1ccc(NC(=O)/C(C#N)=C/c2c(C)nn(-c3ccc(F)cc3)c2Cl)cc1Cl | -7 | -4.3 | 4 | 6 | -10 | 7035 | -5
COCc1cc(=O)[nH]c(Nc2nc3ccccc3o2)n1 | -7 | -3.5 | 16 | 12 | -18 | 4380 | -13
CCC(=O)N1CCN(c2nc3ccccc3s2)CC1 | · | 0.7 | · | -2 | -44 | 2775 | 1
O=C(NNC(=O)c1ccncc1)Nc1ccc([N+](=O)[O-])cc1 | · | · | · | 2 | -50 | 2587 | ·
C=CCNC(=O)C1(S(=O)(=O)c2ccccc2)CC=CC1 | 1 | 6.1 | -10 | -5 | -14 | 4114 | 3
CCSc1ncccc1-c1nc2ccccc2[nH]1 | 3 | 0.7 | 7 | -2 | -27 | 3643 | -5
COCc1c(C#N)c(NCCc2ccc(F)cc2)nc(C)c1[N+](=O)[O-] | 3 | 8.4 | 9 | 1 | -26 | 3246 | -5
CN(C)c1ccc(N=Nc2cccc3ccoc23)cc1 | · | · | · | 4 | -78 | 2936 | ·
O=C(Nc1ccccc1[N+](=O)[O-])c1cncc(Br)c1 | -1 | 6.3 | 8 | 11 | -25 | 2531 | -4
C/C(=N\Nc1cc(N2CCOCC2)nc(C)n1)c1cccc([N+](=O)[O-])c1 | · | · | · | 12 | -7 | 4060 | ·
CCn1c(S(=O)(=O)O)nc2ccccc21 | 14 | 3.6 | 12 | 4 | -13 | 4781 | 4
CCOc1ccc(C(C)C)cc1S(=O)(=O)Nc1ccc(Cl)cn1 | · | 3.0 | · | 1 | -19 | 4108 | 10
O=C(N/N=C/c1c(O)n(Cc2ccc(F)cc2)c(=S)[nH]c1=O)c1ccncc1 | 17 | 7.0 | 7 | 7 | -19 | 4248 | 5
O=C(c1snnc1-c1ccccc1)N1CCOCC1 | 7 | 3.9 | 8 | -8 | -11 | 4375 | -7
O=c1c(-c2ccccc2)coc2c(CN3CCCCC3)c(O)ccc12 | 21 | 6.1 | 11 | 1 | -39 | 3097 | 6
Cc1ccc2oc(C(=O)NCc3ccc4c(c3)OCO4)c(C)c2c1 | · | -10 | · | 4 | -10 | 4111 | 10
CN(C)c1ccc(C=NNC(=O)c2nnn(-c3nonc3N)c2COc2ccc(F)cc2)cc1 | -1 | 7.0 | -7 | · | · | · | 3
Cc1ccc2nc3c(c(Nc4cccc(O)c4)c2c1)CCC3 | 1 | 1.3 | 5 | 10 | -18 | 4316 | -3
O=C(Nc1ccc(S(=O)(=O)N2CCCC2)cc1)c1ccc(OCC2CCCO2)cc1 (stereo not given) | -15 | 3.8 | -2 | 19 | 4 | 4099 | 2
COc1ccc(C(=O)OCc2ccccc2F)cc1S(=O)(=O)N1CCCC1 | 7 | 3.1 | 2 | · | -7 | · | 1
O=c1[nH]c(=S)n(Cc2ccc(F)cc2)c(O)c1C=NCc1cccnc1 | -6 | -1.0 | -15 | 1 | -22 | 16199* | 4
COc1cc(S(=O)(=O)n2ccc(C)n2)ccc1Cl | · | · | · | -1 | -21 | 3694 | ·
CCc1cccc(NS(=O)(=O)c2ccc(-n3cccn3)cc2)c1 | 1 | 9.4 | 2 | 0 | -19 | 5458 | -7
C/C(C=NNC(=O)Cc1cc(=O)[nH][nH]1)=C\c1ccccc1 | 1 | 11 | 14 | · | · | · | -1
CCCNC(=O)Cn1c(=O)oc2cc(S(=O)(=O)N3CC(C)CC(C)C3)ccc21 (stereo not given) | -2 | 4.0 | -11 | 1 | -22 | · | 6
COc1ccc(-c2[nH]ncc2/C=N\NC(=O)c2ccc(C(C)(C)C)cc2)cc1OC | · | · | · | -1 | -20 | 8775 | ·
Cn1ncc(Cl)c1C(=O)NC1C2CC3CC(C2)CC1C3 (stereo not given) | 2 | 4.6 | 16 | 2 | -20 | 2302 | 0
Cc1cc2n(n1)C(c1ccsc1)Nc1ccccc1-2 (stereo not given) | 10 | -1.9 | 2 | -4 | -25 | 9068 | -1
c1cncc(CNc2ncn[nH]2)c1 | 12 | 1.4 | 9 | -10 | -8 | 4234 | -2
